Compound activity: PubChem, Fisher Drug Discovery Resource Center
NPYLR7 ag – activates Aedes aegypti NPYLR7 receptor | HEK293T NPYLR7/Galpha15, GCaMP6s calcium fluorescence | AID 1259423 | activation, % at 10 µM | 270,000 tested, 0.15% active; in the data active = activation above about 40%;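 also: 0% = vehicle and 100% = reference agonist at the receptor; some compounds past the cut are filed as inactive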
NPYLR7 ag max-min – second read-out of NPYLR7 ag, no call of its own (marks repeat the call); activation, %; measured here: Max-Min RFU normalised activation; some inactives read as strong as hits;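 span of the calcium signal over five minutes; 0% = vehicle and 100% = native peptide agonist; compound fluorescence can raise it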
* hit, by the source's call; & = joins results of further samples. The list is partial (hit frequency here may not be typical).

Structure	NPYLR7 ag	NPYLR7 ag max-min
NC(=O)c1ccccc1NC(=O)C1Cc2ccccc2S1 (stereo not given)	-2	-2
CCN(CC)C(=O)C1CCCN(Cc2nc(-c3cccs3)no2)C1 (stereo not given)	17	13
NS(=O)(=O)c1cccc2c1CCCN2	5	4
O=C(C1CC2(CCNCC2)CN1)N1CCC2(C=Cc3ccccc32)CC1 (stereo not given)	20	6
CCCn1nc(C)c(CNC(=O)c2sc(CC)nc2C)c1C	23	12
CCCCN(C)c1c(C)nc2ccc(C(=O)NCc3cccs3)cn12	-7	-13
CC(C)c1ccc(NC(=O)c2cn(C)c3c(=O)n(Cc4ccccc4)c(=O)[nH]c23)cc1	5	3
COc1ccc(CCN(C)S(=O)(=O)c2ccc(OC)c(N3CCN(C(=O)c4ccc(F)cc4C(F)(F)F)CC3)c2)cc1OC	11	2
Cc1ccc(-n2c(SCCCC#N)nc3ccccc3c2=O)cc1	-6	-7
C=c1ccccc1=c1[nH]/c(=C\c2cc(OC)c(OC)c(OC)c2)c(=O)o1	6	11

Carrying on.
Structure	NPYLR7 ag	NPYLR7 ag max-min
O=C(NCc1cnn2cccnc12)c1cc(COc2c(F)cccc2F)on1	0	-1
COc1cc(CNC(=O)Nc2c(C)nn(C(C)C)c2C)cc(OC)c1O	7	-6
COc1ccc(C(=O)C2CCN(C(=O)Nc3ccccc3F)CC2)cc1	0	8
CCOC(=O)C1CCN(CC(=O)N2N=C(c3ccc(OC)cc3OC)CC2c2ccccc2C)CC1 (stereo not given)	-1	-3
CN(C)S(=O)(=O)c1ccc2c(c1)C(=O)C(=O)N2	4	3
COC(=O)c1cc2ccccc2cc1NC(=O)C1CCC(=O)N1 (stereo not given)	1	0
Cc1cc(-n2ncc3ccccc32)cnc1N	8	12
CSc1ccc(CNc2nn[nH]n2)cc1	17	17
CCOC(=O)CCC(=O)NCc1ccc2c(c1)cc(C)n2C	1	-3
COc1ccc(S(=O)(=O)NCc2ccco2)cc1C(C)(C)C	-1	9

Additional structures:
Structure	NPYLR7 ag	NPYLR7 ag max-min
CC(=NNC(=O)C1CC1)c1ccc(Cl)s1	4	3
CC(C)Oc1cccc(-c2cccc(N3CCNCC3)n2)c1	8	6
NC(=O)c1ccn(-c2cccc(Br)c2)n1	10	2
O=C(Nc1ccc(N2CCCC2)c(C(=O)NCc2ccccc2)c1)c1ccccc1Br	-3	4
Cc1nc2sc3c(c2c(=O)[nH]1)CCCC3	0	2
C=C(C)CN1CCN(C(=O)CN2C(=O)c3ccccc3C2=O)CC1	-10	-14
Cn1c(=O)[nH]c(=O)c2c1nc1n2CCN1c1ccccc1O	2	3
Cc1ccc(OCC2CN(C(=O)c3cc(C)ccc3Cl)CCO2)cc1 (stereo not given)	2	-1
Cc1noc(-c2cccc(F)c2)c1C(=O)NCCc1ccc(F)cc1	4	0
CC(=O)N1C=Cc2ccccc2C1CC(=O)NC1CCOc2ccccc21 (stereo not given)	-5	-5

Following part.
Structure	NPYLR7 ag	NPYLR7 ag max-min
CCOc1ccc2cc(-c3nnc(Nc4ccc(C)cc4)s3)c(=O)oc2c1	2	0
CCC(C)(C)NC(=O)CN1C(=O)NC(C)(c2ccccc2)C1=O (stereo not given)	1	1
CC1=C[C@@H](CNCCc2c[nH]c3ccccc23)[C@H](C(C)C)C[C@H]1Cc1nnc(-c2cncn2C)o1	-9	-18
Cc1cc(=O)[nH]c(NN=Cc2ccc3sc(C)nc3c2)n1	-1	-9
Cc1cc(C)n(-c2cccc(-c3ccccc3OC(C)C(N)=O)c2)n1 (stereo not given)	-3	5
CCN(CC)C(=O)Cn1c([N+](=O)[O-])cnc1C	3	0
Cc1ccc(-n2nc(C)c(C(=O)NC3CCC(O)CC3)n2)c(C)c1 (stereo not given)	9	3
Cc1nc(C(C)n2ccnc2-c2cnc[nH]2)cs1 (stereo not given)	-1	-7
COC(=O)N1CCCN(Cn2nc(C)c(Br)c2C)CC1	6	-13
CCOC(=O)C1(CC2CC2)CCN(C(=O)c2cc(C(F)(F)F)ccc2Cl)CC1	6	-2

The results go on:
Structure	NPYLR7 ag	NPYLR7 ag max-min
CN1C[C@H](NC(=O)c2cccc(-c3nc4ccccc4[nH]3)c2)C[C@H]1CO	4	2
O=C1NC(=S)N/C1=C/c1cccc2ccccc12	4	15
Cc1cc(C)c(NC(=O)CNC(=O)c2c(C)nn(C)c2C)c(C)c1	9	10
CCSc1ccc(NC(=O)c2cnc(-c3ccccc3)nc2)cn1	1	0
O=S(=O)(c1ccc2cccc3c2c1CC3)N1CCOCC1	10	5
Cc1cc2c(cc1C)NC(c1cccc3ccccc13)C1C(=O)CC(C)(C)CC1=N2 (stereo not given)	-3	-8
CC1(C(=O)NS(=O)(=O)c2cccc(Cl)c2)CCN1C(=O)CCc1ccccc1 (stereo not given)	1	1
c1ccc2sc(N3CCCN(Cc4cc5n(n4)CCNC5)CC3)nc2c1	6	3
Nc1nc(Cn2cc(C(F)(F)F)cc(Cl)c2=O)nc2ccccc12	1	0
CCCNC(=O)CN(C)C(=O)/C=C/c1c(C)nn(-c2ccc(F)cc2)c1Cl	6	3

Three structures from above, arranged by count of non-hydrogen atoms, highest first:
Structure	NPYLR7 ag	NPYLR7 ag max-min
CC1(C(=O)NS(=O)(=O)c2cccc(Cl)c2)CCN1C(=O)CCc1ccccc1 (stereo not given)	1	1
Cc1cc(C)c(NC(=O)CNC(=O)c2c(C)nn(C)c2C)c(C)c1	9	10
O=C1NC(=S)N/C1=C/c1cccc2ccccc12	4	15

(more compounds)
Structure	NPYLR7 ag	NPYLR7 ag max-min
COc1cc(C(=O)N2CCOC(Cc3ccccc3)C2)ccc1F (stereo not given)	2	13
CCOC(=O)N1CCC(C(=O)Nc2ccc(S(=O)(=O)N(C)C)cc2)CC1	4	3
COc1ccc2[nH]c3c(c2c1)CCNC3=O	1	1
CC1(Cc2ccc3ccccc3n2)C(=O)Nc2c(C(F)(F)F)cccc21 (stereo not given)	2	5
O=C(c1ccc(Oc2ccccc2)cc1)C1CCCN(C(=O)CCn2cnnn2)C1 (stereo not given)	22	6
CCOc1ccc(S(=O)(=O)c2cn(Cc3ccc(C)cc3)c3ccc(OC)cc3c2=O)cc1	-8	-14
CC(C)Nc1ccc(C(=O)Nc2cccc(Oc3ccccc3)c2)cn1	0	-2
CC(=O)Nc1cccc(-c2cnn(Cc3ccccc3)c2)c1	-4	-5
Cc1nn(C2CCS(=O)(=O)C2)c2nc(-c3ccccc3)cc(C(=O)NCCc3ccccc3)c12 (stereo not given)	5	12
CC(C)CN(CCC(=O)Nc1ccccc1)c1nc(-c2ccco2)nc2ccccc12	-2	11

(more compounds)
Structure	NPYLR7 ag	NPYLR7 ag max-min
Cc1nn(C)c(C(=O)N(C)C23CC4CC(CC(C4)C2)C3)c1Br	16	11
COc1cn(CC(=O)Nc2cc(C)on2)c(CN2CCOCC2)cc1=O	3	1
Cc1nn2cc(-c3cccc([N+](=O)[O-])c3)cc2c2c(C)n(C)c(C)c12	-8	-13
Cc1noc(C)c1C(=O)O	-1	-1
CCCc1nc(C)sc1C(=O)N1CCC(c2ccc(F)cc2)CC1	-6	-16
CC(C)c1ccc(NC(=O)C(C2CCCC2)N2CCN(C(=O)c3ccccc3C(F)(F)F)CC2)cc1 (stereo not given)	3	17
NC(CN1CCCC1=O)=NOC(=O)c1ccc(Cl)cc1	-10	-12
CCc1ncc(CN(C)C(C)C(=O)NC(C)C)s1 (stereo not given)	3	-1
CCOC(=O)c1c(C)[nH]c(C(=O)CC(=O)OC)c1C	8	7
c1ccc2c(c1)Cc1ccc(-c3csc(N4CCOCC4)n3)cc1-2	6	7

Gathered by group, the entries above containing a thiophene ring, fused or not.
Structure	NPYLR7 ag	NPYLR7 ag max-min
CCN(CC)C(=O)C1CCCN(Cc2nc(-c3cccs3)no2)C1 (stereo not given)	17	13
CCCCN(C)c1c(C)nc2ccc(C(=O)NCc3cccs3)cn12	-7	-13
CC(=NNC(=O)C1CC1)c1ccc(Cl)s1	4	3
Cc1nc2sc3c(c2c(=O)[nH]1)CCCC3	0	2

Continued.
Structure	NPYLR7 ag	NPYLR7 ag max-min
CCOc1ncccc1CN1CCCC(C(=O)N[C@@H]2C[C@@H]3C[C@H]([C@H]2C)C3(C)C)C1 (stereo not given in full)	-2	-6
Cc1ccc(N2CCN(C(=O)c3ccccc3N3CCC(NC(=O)c4cccs4)CC3)CC2)cc1C	1	5
c1ccc(COC2CCN(Cc3cccc4nccnc34)CC2)cc1	5	5
CCCC(=O)OCC(O)CN(Cc1c(CC)nn(-c2ccccc2)c1Oc1ccc(OC)cc1)C1CC1 (stereo not given)	-6	3
Cc1c(CCNS(=O)(=O)c2ccc3ccccc3c2)sc2nc(-c3ccc(F)cc3)nn12	8	5
COc1ccccc1CNC(=O)c1nn(-c2ccccc2)c(=O)cc1OC	0	-1
CCn1nc(-c2ccccc2)c(-c2ccccc2)c(C(=O)N2CCOCC2)c1=O	-3	26
Cc1ccc(C)c(C(=O)N2CC[C@@H]3NC(=O)[C@H]4C[C@H](NC(=O)[C@@H](O)c5ccccc5)CN4C(=O)[C@H]32)c1	-5	-11
Cc1ncc2c(c1CNS(=O)(=O)c1cccs1)CCN(C(=O)c1cc3ccccc3n1C)C2	23	5
CC(=O)N1CCc2c(nc(-c3ccccn3)nc2NCCn2cccn2)C1	10	9

Continuation.
Structure	NPYLR7 ag	NPYLR7 ag max-min
S=C1NC2(CCCCCC2)N=C1c1ccccc1	14	6
Cc1nc(C=CC(=O)N(Cc2ccccc2)C2CCS(=O)(=O)C2)cs1 (stereo not given)	2	1
Fc1ccccc1Nc1nc(COc2cccc(Cl)c2)cs1	5	2
COCC(=O)N1CCN(c2ccc(Cl)cc2)C(=O)C1C (stereo not given)	1	8
CS(=O)(=O)Oc1ccc(CN(Cc2ccccc2)C(=O)c2cccc(F)c2)cc1	1	10
COc1ccc(S(=O)(=O)N2CCOCC2)cc1N1CCN(C(=O)c2ccco2)CC1	31	24
CCOc1nn(CC)cc1-c1nnc(SCc2cccnc2)n1CC	4	4
CC(C)(C)NP1(=O)C=C(c2ccccc2)SC(c2ccccc2)=C1	-7	-13
O=C(NC1CCCCC1)c1sc(=S)n2c1[nH]c(=O)c1sccc12	12	8
O=C(CC1OCCc2sccc21)OCc1ccc2n[nH]nc2c1 (stereo not given)	-1	-3

The results go on:
Structure	NPYLR7 ag	NPYLR7 ag max-min
COc1cccc(-c2cnc(NC(C)=O)cn2)c1	2	1
CCS(=O)(=O)c1ncc(CN2CCCCO2)n1CCCc1ccccc1	17	10
C=CCn1c(SCc2cccc(Cl)c2)nnc1-c1ccccc1C	20	28
Clc1cccc(Cl)c1CNC1CCN(Cc2ccccc2)CC1	-3	-5
O=C(NCC1CC1)c1nn(-c2ccccc2)c(=O)c2ccccc12	6	4
Cn1nnnc1SCc1cc(=O)n2cc(Br)ccc2n1	3	-1
Cc1cccnc1C(C)NC(=O)CCN(C)S(C)(=O)=O (stereo not given)	-7	-10
O=C1NCCN(c2nc(C(F)F)nc3ccccc23)C1c1cccs1 (stereo not given)	-4	-5
CNC(=O)C1(NS(=O)(=O)c2ccc(C)c3ncccc23)CCCCC1	-3	-74
COc1cc(S(=O)(=O)Nc2ccc3cn[nH]c3c2)ccc1Br	1	6

Further structures:
Structure	NPYLR7 ag	NPYLR7 ag max-min
Cc1ccc(Cc2nc(CSc3nc4ccccc4s3)cs2)cc1	21	27
COc1cccc(CO[C@]2(C(=O)NCC3CC3)CC(OCc3ccccc3C#N)[C@@H]3OC(C)(C)O[C@@H]3C2)c1 (stereo not given in full)	-29	-23
O=C(Nc1nnc(-c2ccc3c(c2)OCO3)s1)C1CCCN1C(=O)Nc1ccc(Cl)cc1 (stereo not given)	1	-1
CCC(C)NCc1cccc(OCc2nc(CO)cs2)c1 (stereo not given)	29	29
FC(F)(F)c1cnc(NC2CCN(C3CC3)C2)c(Cl)c1 (stereo not given)	6	4
Cc1ccc(Cn2c(=O)c3c(nc4[nH]c(C)c(C)n43)n(C)c2=O)cc1	1	-3
CC1CCc2c(sc3ncnc(SCC#N)c23)C1 (stereo not given)	3&3	1&0
O=C(CCN1C(=O)c2ccccc2C1=O)Nc1nccs1	-3	-7
CCCN1C(SCC(=O)NCCc2ccc(Cl)cc2)=NS(=O)(=O)c2ccccc21	3	3
Cc1[nH]c(=S)n(C2CCCC2)c1C	7&-3	3&-3

Next section.
Structure	NPYLR7 ag	NPYLR7 ag max-min
CCOC(=O)[C@H]1[C@@H](O)C(=O)NC12CCN(C(=O)CC1CCCC1)CC2	2	11
O=C(Cc1c[nH]c2ccc(F)cc12)N1CCc2c(cnn2-c2ccc(Cl)cc2Cl)C1	-1	30
CO[C@H]1CN(C(=O)CCc2c(C)n[nH]c2C)CC[C@H]1N	15&2	11&-2
CCNC(=O)CSc1nnc(-c2ccccc2)o1	-7	5
CC1CCN(C(=O)CCCc2nnc3c(=O)n(-c4ccc(Cl)cc4)ccn23)CC1	3	-2
O=C(c1cnccn1)N1CCC(N2CCC(N3CCCC3=O)CC2)CC1	0	-3
CCc1ccc(CN(C)C(=O)c2csc(-c3cnccn3)n2)cc1	4	3
COc1cc2c(cc1OC)CN(C(=O)C1CC3(CCNCC3)CN1)CC2 (stereo not given)	2	2
